Assay outcomes (PubChem)
Marburg entry inh: Marburg virus entry inhibition. AID 540276. Marburg virus pseudotyped entry inhibition, cell reporter; control for the full effect not named in the record; about a third of the inactives were read at about 46 µM. 1.8% of 300,000 active. Potency, µM (highest dose often 37.8 µM), inactives show at the highest dose activity change, negative = inhibition, hits mostly inhibitors; active = well fitted inhibition curve with a large enough effect; inconclusive = small, poorly fitted or top-dose-only effect, or effect the other way; inactive = flat fitted curve, though single readings scatter; tested in HEK293 cells; about a fifth of its hits are not listed in these tables; note: % is set by controls: 0 for no effect and ±100 for the full control effect; luciferase read-out
NS1 function inh: blocks influenza NS1 protein function; S. cerevisiae slowed by influenza A NS1, growth recovery by OD600; Potency, µM (top dose mostly 46.1 µM), for inactives: top-dose activity, positive = more growth; 0.4% of 270,000 active; AID 2326; active means well fitted rising curve with a large enough effect; inconclusive means small, poorly fitted or top-dose-only effect; inactive means no such curve, though single readings can be large or run the other way; note: nearly all actives have a fitted effect of over 50% in size
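Growth recovery, yeast-based: influenza A NS1 expressed in S. cerevisiae causes slow growth, and suppressors are detected by OD600. The parent strain without NS1 is used as positive control.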
SARS PLP yeast: inhibitors of SARS-CoV papain-like protease in yeast; 0.19% of 330,000 active; AID 485353; Potency, µM (titrated, usually from 32.9 µM), for inactives: top-dose activity, positive = growth rescue; S. cerevisiae expressing SARS-CoV PLpro, growth rescue; control for the full effect not named in the record; active means well fitted rising curve with a large enough effect; inconclusive means small, poorly fitted or top-dose-only effect; inactive means no such curve, though single readings can be large or run the other way; note: 0% is about no effect; nearly all actives have a fitted effect of over 55% in size; growth read by luminescence after 48 h
Cruzain inh noDet: blocks cruzain activity in detergent-free assay. P25779. purified cruzain, Z-FR-AMC fluorescence, no detergent. Potency, µM, inactives show max response, negative = inhibition, usual class: inhibitors. 2.3% of 200,000 active. AID 1476;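 note: plate controls were enzyme without inhibitor for no effect and buffer without enzyme for full effect; nearly all actives have a fitted effect of over 40% in size; top concentration of the series not given in the record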
Target sequence (P25779 123-467 limits assumed): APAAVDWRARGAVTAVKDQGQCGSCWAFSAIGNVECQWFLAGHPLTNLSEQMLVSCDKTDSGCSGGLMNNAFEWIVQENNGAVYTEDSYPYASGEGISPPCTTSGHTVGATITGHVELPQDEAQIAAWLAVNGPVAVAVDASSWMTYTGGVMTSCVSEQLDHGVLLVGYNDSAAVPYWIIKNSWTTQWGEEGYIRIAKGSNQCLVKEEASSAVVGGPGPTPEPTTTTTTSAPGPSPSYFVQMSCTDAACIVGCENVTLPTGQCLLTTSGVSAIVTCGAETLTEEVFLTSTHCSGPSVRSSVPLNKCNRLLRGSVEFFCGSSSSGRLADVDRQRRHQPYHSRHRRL
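Detergent-free condition (0.00005% Triton X-100) in acetate buffer pH 5.5 with DTT. 1.5 nM enzyme and compound were pre-mixed 15 min, then 2 uM Z-FR-AMC substrate added; reaction progress from fluorescence change between first and third reads (60 s).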
Lassa entry inh: Lassa virus entry inhibition; Potency, µM (top dose mostly 37.9 µM), for the others: at the top dose activity change, negative = inhibition, hits mostly inhibitors; Lassa virus pseudotype entry inhibition, cell reporter; control for the full effect not named in the record; 1.2% of 300,000 active; active means well fitted inhibition curve with a large enough effect; inconclusive means small, poorly fitted or top-dose-only effect, or effect the other way; inactive means flat fitted curve, though single readings scatter; tested in HEK293 cells; note: % is set by controls: 0 for no effect and ±100 for the full control effect; nearly all actives have a fitted effect of over 50% in size; luciferase read-out
RE007 growth inh: less growth of the S. pombe RE007 Vpr strain | Potency, µM (titrated, usually from 92.2 µM), for inactives: at the top dose activity change, negative = less growth | S. pombe RE007 Vpr strain, BacTiter-Glo ATP luminescence, 24 h; control for the full effect not named in the record | 0.21% of 360,000 active | AID 651644; active = well fitted falling curve with a large enough effect; inconclusive = small, poorly fitted or top-dose-only effect; inactive = no such curve, though single readings can be large or run the other way;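 note: % is set by controls: 0 for no effect and ±100 for the full control effect; nearly all actives have a fitted effect of over 50% in size; the assay follows cell death caused by Vpr and the record does not say whether a fall means rescue or toxicity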
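Fission yeast strain RE007, carrying one chromosomally integrated HIV-1 vpr copy, was seeded at OD 0.01 in PMG+AL medium with 23 nL pinned compound. After 24 h at 30 °C and 99% humidity, viability was read by BacTiter-Glo luminescence.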
2A StopGo: FMDV 2A StopGo reporter, luciferase signal. human cells with a luciferase reporter of 2A StopGo recoding; control for the full effect not named in the record. Potency, µM (doses to about 57.9 µM), for the others: at the top dose signal change, negative = less light. 1.2% of 410,000 active; active = well fitted falling curve with a large enough effect; inconclusive = small, poorly fitted or top-dose-only effect; inactive = no such curve, though single readings can be large or run the other way; tested in HEK293T cells; note: % is set by controls: 0 for no effect and ±100 for the full control effect; nearly all actives have a fitted effect of over 45% in size; luciferase light after 4 h
Cruzain Triton: inhibitors of Trypanosoma cruzi cruzain with detergent. P25779. purified cruzain, Z-FR-AMC fluorescence, 0.01% Triton. Potency, µM, without a hit: max response, negative = inhibition, most hits filed as inhibitors. 0.43% of 200,000 active;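 note: plate controls were neutral wells for no effect and buffer without enzyme for full effect; nearly all actives have a fitted effect of over 40% in size; top concentration of the series not given in the record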
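Compounds were screened in titration against cruzain (1.5 nM) with 0.01% Triton X-100 to counter colloidal aggregation. Activity was the AMC fluorescence increase over 60 s after adding 2 uM Z-FR-AMC at pH 5.5.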
* hit, by the source's call; ? = inconclusive; nt = no result given; & = joins results of further samples; [ ] = remark or other dose. Unless noted, calls come from the whole dose curve; as a rule, active = well fitted curve in the direction sought with a large enough effect; inconclusive = small, poorly fitted or top-dose-only effect, or another doubt; inactive = no such curve, though single readings can be large; an effect the other way counts as inactive or inconclusive. Potency is the fitted concentration of half-maximal effect.

Results follow in this order: Lassa entry inh	2A StopGo	Cruzain Triton	RE007 growth inh	Cruzain inh noDet	SARS PLP yeast	NS1 function inh	Marburg entry inh
- Cc1cccnc1NC(=O)Cn1nc(-c2ccccc2)oc1=S
  ?	38%[activator]	-3.9%	-12%	-1%	-12%	-4%	?
- COc1ccccc1N1CCN(c2cc(=O)n(Cc3ccc(F)cc3)c(=O)[nH]2)CC1
  nt	-28%	0.5%	-6%	-29%	1%	-4%	nt
- Cc1ccc(CNC(=O)C(CCC(N)=O)NC(=O)OCc2ccccc2)cc1 (stereo unspecified)
  -5%	-9%	-1.7%	2%	8%	1%	-10%	13%
- O=C(C(c1ccccc1)c1ccccc1)N1CCN(Cc2ccccn2)CC1
  7%	-26%	9.0%	-5%	23%	3%	-4%	-8%
- CCCCN(C(=O)CNC(=O)c1cccs1)C(C(=O)NC1CCCCC1)c1cccnc1 (stereo unspecified)
  26%	0%	-1.5%	1%	-1%	8%	-6%	5%
- Cc1occc1C(=O)Nc1cccc(/C=C/C(=O)O)c1
  0%	-12%	nt	-5%	nt	nt	nt	-3%[46.1 µM]
- CC(=O)NC12CC3CC(C1)CC(C(=O)OCC(=O)c1ccc4c(c1)OCCO4)(C3)C2
  -15%	-17%	-4.8%	-11%	8%	3%	-19%	9%[46.1 µM]
- Oc1ccc(C=NN=C2c3ccccc3-c3ccccc32)c(O)c1
  -13%	6%	nt	?	nt	nt	nt	?
- CC(=O)c1ccc(Nc2nc3ccccc3nc2-n2nc(C)cc2C)cc1
  21%[46.1 µM]	-15%	-0.8%	nt	-9%	nt	nt	10%[46.1 µM]
- Cc1cc(NC(=O)CC2Oc3ccccc3NC2=O)ccc1Br (stereo unspecified)
  -11%	-4%	nt	3%	nt	1%	11%	-21%
- COc1ccc(C(=O)N/N=C/c2cc3ccccc3[nH]c2=O)cc1
  -3%	-23%	nt	-7%	nt	3%	0%	-12%
- N=c1c(S(=O)(=O)c2ccccc2)cc2c(=O)n3ccccc3nc2n1Cc1ccco1
  0%	11%	-6.4%	-11%	-30%	1%	1%	-18%
- CC(C)c1nnc(SCC(=O)NCc2ccco2)n1C
  0%	1%	-4.3%	-18%	6%	-1%	5%	?
- C=CCn1c(CSCc2ccccc2)nnc1SCC(=O)NCc1ccccc1
  -12%	-5%	2.2%	17%	1%	0%	-13%	3%
- C=CCNC(=S)N/N=C/c1cn(C)c2ccccc12
  15%	-3%	nt	3%	nt	13%	?	?
- CCc1ccc(S(=O)(=O)c2nnn3c2nc(Nc2ccc(C)c(Cl)c2)c2sccc23)cc1
  13%[46.1 µM]	-9%	-0.2%	nt	1%	nt	nt	nt
- Cc1ccc(OC(=O)CCC(=O)Oc2ccc(C)cc2C)c(C)c1
  -27%[46.1 µM]	17%	nt	-16%	nt	nt	nt	1%[46.1 µM]
- Cc1ccc(NC(=O)CN2C(=O)CC(C)Sc3ccccc32)c(C)c1 (stereo unspecified)
  nt	2%	-1.0%	nt	-1%	nt	nt	?
- CNC(=O)c1sc(-c2cccnc2)nc1C
  ?	42%[activator]	-4.3%	-8%	-8%	2%	-1%	-7%
- CCOC(=O)C1CCCN(c2nc3ccccc3nc2NS(=O)(=O)c2ccc(C)cc2)C1 (stereo unspecified)
  ?	0%	nt	26%	nt	-9%	nt	0%
- CN(C)c1ccc([N+](=O)[O-])c([N+](=O)[O-])c1
  -21%[46.1 µM]	9%	nt	5%	nt	nt	nt	-27%[46.1 µM]
- CCOC(=O)Cc1csc(NC(=O)CCS(=O)(=O)Cc2ccccc2)n1
  -3%	-22%	-1.7%	-7%	-9%	4%	13%	0%
- Cc1cc(F)ccc1NC(=O)C1CCN(C(=O)c2cnn(-c3ccccc3)c2-n2cccc2)CC1
  -2%[46.1 µM]	-17%	-4.6%	nt	?	nt	nt	-9%[46.1 µM]
- NC(CC(=O)NC(c1ccccc1)(c1ccccc1)c1ccccc1)C(=O)O (stereo unspecified)
  2%	2%	nt	-6%	nt	0%	nt	-1%[46.1 µM]
- Cc1cc(-c2nn(-c3ccccc3)cc2/C=C2\SC(N)=NC2=O)ccc1OC(C)C
  ?	-21%	-5.9%	-1%	-8%	-6%	-2%	19%
- COc1cc(OC)c2c(C)c(CC(=O)NCc3ccccc3OC)c(=O)oc2c1
  0%[46.1 µM]	-10%	-3.3%	nt	?	nt	nt	-4%[46.1 µM]
- CCOc1ccc(NC(=O)C2CCCN(S(=O)(=O)c3ccc4[nH]c(=O)ccc4c3)C2)cc1 (stereo unspecified)
  0%[46.1 µM]	-7%&-4%	-0.3%	7%	-4%	-4%	2%	nt
- CCCCN(C)S(=O)(=O)c1ccc(C(=O)N=c2sc3cc(NC(C)=O)ccc3n2C)cc1
  -2%	-19%	1.5%	-9%	3%	7%	8%	9%
- CCOc1ccc(C(CC(=O)O)NC(=O)COc2ccccc2OC)cc1OC (stereo unspecified)
  -6%	11%	nt	0%	nt	2%	nt	1%[46.1 µM]
- CCN(CC)c1ccc(NC(=O)Cn2c(C)c3cnn(-c4ccccc4)c(=O)c3c2C)c(C)c1
  18%[46.1 µM]	-21%	-0.5%	nt	4%	nt	nt	-16%[46.1 µM]
- O=C(NCCOC(=O)c1ccc(S(=O)(=O)N2CCOCC2)cc1)c1cccnc1
  -11%	-1%	7.5%	-3%	0%	3%	-8%	5%&5%
- COc1ccc(/C=C/c2nc(C#N)c(NCCN(C)C)o2)cc1OC
  -4%	-7%	nt	-13%	nt	2%	-9%	-8%
- O=C(Nc1ccccc1[N+](=O)[O-])C1C(c2ccccc2)=C1c1ccccc1
  5%	-25%	0.9%	1%	?	3%	7%	-9%[46.1 µM]
- Cc1[nH]n(-c2ccccc2)c(=O)c1/C=N/N1C(=O)c2cccc3cccc(c23)C1=O
  -22%	-29%	nt	-12%	nt	-2%	-13%	?
- Cc1cccn2c(=O)c3cc(C(=O)N(Cc4ccccc4)C(C)C)sc3nc12
  ?	?	-6.9%	nt	?	nt	nt	4µM*
- COC(=O)C1=NN(C(=O)c2ccc(Cl)cc2)C(O)(c2ccccc2)C1 (stereo unspecified)
  -22%	nt	-5.0%	-6%	-5%	-8%	-69%	5%
- COc1cccc(C(=O)O/N=C(\N)c2ccncc2)c1
  39%[14.3 µM]	0%	1.9%	-16%	-5%	-7%	-19%	?
- COC(=O)c1ccc(COC(=O)c2ccccc2OC)cc1
  nt	63%[activator]	-0.3%	-15%	5%	3%	-30%	nt
- CCOc1ccc(N=Cc2c(O)cc(C)oc2=O)cc1
  nt	26%	2.1%	3%	-11%	0%	-5%	nt
- COc1cc(C(=O)NCC(=O)n2nc(C)cc2C)cc(OC)c1OC
  -8%	11%	0.9%	0%	8%	7%	-2%	20%
- Cn1c(SCC(=O)N2CCCCC2)nc2c(c1=O)SCC2
  -6%	-3%	nt	8%	nt	3%	5%	8%
- CCC(C)C1C(C#N)=C(N)Oc2n[nH]c(-c3ccccc3)c21 (stereo unspecified)
  nt	?	-5.8%	3%	2%	3%	-4%	nt
- COc1ccc2[nH]c(=O)c(CN(Cc3ccco3)C(=O)c3ccccc3)cc2c1
  ?	0%	-0.1%	9%	-4%	2%	-2%	?
- CSc1ncccc1C(=O)OCC(=O)N(C)c1c(N)n(Cc2ccccc2)c(=O)[nH]c1=O
  -4%[46.1 µM]	-12%	nt	-3%	nt	-2%	nt	-12%
- O=C(NCCc1ccccc1)c1ccccc1NC(=O)C1CC=CCC1C(=O)O (stereo unspecified)
  -13%	35%[activator]	-1.9%	-14%	6%	-3%	-6%	?
- N#Cc1cc(-c2ccccc2)cnc1Sc1ccc(Cl)cc1
  ?	6%	-0.8%	-7%	-18%	-8%	-1%	-15%
- CCC(=O)Oc1ccc2c(=O)c(-c3ccc4ccccc4n3)c(CC)oc2c1C
  5%	-9%	-4.5%	7%	-1%	-20%	3%	?
- Brc1ccc2nc(SCCOc3ccccc3)[nH]c2c1
  25%[46.1 µM]	44%[activator]	-12%	nt	1%	nt	nt	?
- COc1cccc(NC(=O)CCN2CCN(c3ccccc3)CC2)c1
  ?	-26%	-2.6%	nt	-12%	nt	nt	6%[46.1 µM]
- CCOC(=O)c1cnc(-c2ccccc2)nc1-c1ccccc1
  -7%[46.1 µM]	-9%	nt	?	nt	-18%	nt	?
- COc1ccc(OCCCC(=O)Nc2cccc([N+](=O)[O-])c2C)cc1
  0%	0%	-3.2%	-6%	2%	-3%	-1%	1%
- Cc1csc2ncc(C(=O)N(Cc3ccccc3)c3ccccn3)c(=O)n12
  nt	17%	0.9%	9%	2%	-4%	-3%	nt
- O=C(C1CCC1)N1CCc2cc(S(=O)(=O)N3CCN(c4ccccn4)CC3)ccc21
  -20%	-26%	-1.1%	-13%	-8%	0%	-14%	?
- Nc1cc(C(=O)OCC(=O)NCCCc2ccccc2)ccc1Cl
  26%	-8%	nt	1%	nt	-3%	-13%	?
- Cc1ccc(S(=O)(=O)/N=C2\C=C(Nc3cccc(C(=O)O)c3)C(=O)c3ccccc32)c(C)c1
  ?	?	nt	-4%	nt	0%	12%	?
- CC12CCC(=O)N1C(C(=O)Nc1nnc(SCc3ccc(F)cc3)s1)CS2 (stereo unspecified)
  nt	-9%	nt	0%	nt	5%	6%	nt
- N#Cc1c2c(c(NCCN3CCOCC3)n3c1nc1ccccc13)CCCC2
  11%	-19%	-5.5%	-8%	-1%	-14%	-17%	2%
- COc1ccc(-c2cc(C#N)nc(Cl)n2)cc1
  -16%	?	nt	-2%	nt	-4%	-50%	?
- COc1ccccc1NC(=S)N(CCc1c(C)[nH]c2ccccc12)Cc1cccs1
  nt	-15%	-7.6%	-8%	?	-10%	?	0%
- O=[N+]([O-])c1ccc(N/N=C2/CCCCC2c2ccccn2)c([N+](=O)[O-])c1 (stereo unspecified)
  -9%	-13%	-7.0%	-20%	-15%	-24%	-15%	20%
